Source: PubChem BioAssay (Broad Institute)
PD-1 reversal – reversal of PD-1 mediated T-cell inhibition; primary human CD4 T cells, PD-L1 beads, CellTiter-Glo 96 h; activation, % (concentration not given with the values); 29,000 tested, under 10 active; AID 2316;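 active = replicate mean of 50% or more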;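 also: 0% = median vehicle wells and 100% = positive control; 100 nL library stock added to about 50 µL; numbers are from one replicate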
YB-1 expression – YB-1 expression inhibition. delta delta Cp (YB-1 minus CDIP) (test concentration not listed). 30,000 compounds, 0.37% hits. U2OS, qRT-PCR YB-1 vs CDIP delta delta Cp, 16 h; hits give high values; zero = DMSO, each unit about twofold;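 active = delta delta Cp rounded down to an integer at or above 3, about 3 SD of DMSO wells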;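 also: higher means less YB-1 transcript or more CDIP transcript relative to DMSO; stock transfer was 100 nL into about 100 µL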
MITF inh – inhibitors of MITF; 37,000 compounds, 0.28% hits; TRPM1 promoter luciferase, luminescence, 24 h; AID 2240; inhibition, % (concentration not given with the values);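 active = most replicates at 85% or more, or half of them and the mean; inconclusive = half reach 85% but not the mean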;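 also: human melanocyte line stably carrying TRPM1 promoter luciferase reporter; 0% = vehicle wells and 100% = a positive control; the first replicate is given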
Hedgehog inh – Sonic Hedgehog pathway inhibition; Shh-LIGHT2 Gli-luciferase reporter, 30 h; inhibition, % (concentration not given with the values); 22,000 compounds, 2.1% hits;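 active = replicate mean of 65% or more; inconclusive = mean lower but half the replicates past it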;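 also: pathway switched on by Shh-conditioned medium diluted 1 in 25 in low serum; 100 nL library stock added to about 40 µL; 0% = median of neutral wells and 100% = positive control level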
Active calls of the source: *; ? = inconclusive; . = not tested or not shown; & = joins results of further samples.

SMILES	PD-1 reversal	YB-1 expression	MITF inh	Hedgehog inh
C[C@H](CO)N1C[C@H](C)[C@H](CN(C)Cc2ccc(C(=O)O)cc2)Oc2ccc(NC(=O)Cn3cnnn3)cc2C1=O	1.5	0.07	3	-1
C[C@H](CO)N1C[C@H](C)[C@@H](CN(C)Cc2ccc(C(F)(F)F)cc2)Oc2c(NC(=O)C3CCOCC3)cccc2C1=O	0.9	0.1	-15	11
C[C@@H]1CN([C@H](C)CO)C(=O)c2cccc(NC(=O)C3CCCCC3)c2O[C@@H]1CN(C)Cc1ccc(Cl)c(Cl)c1	-4.3	0.019	6	31
CC(C)NC(=O)Nc1cccc2c1O[C@H](CN(C)CC1CCCCC1)[C@H](C)CN([C@H](C)CO)C2=O	0.3	-0.57	-3	6
CC(C)NC(=O)N(C)C[C@@H]1Oc2c(NC(=O)c3ccncc3)cccc2C(=O)N([C@@H](C)CO)C[C@H]1C	.	-0.077	-6	-38
C[C@@H]1CN([C@H](C)CO)C(=O)c2cccc(N(C)C)c2O[C@@H]1CN(C)S(C)(=O)=O	1.3	0.075	2	-13
C[C@H](CO)N1C[C@H](C)[C@@H](CN(C)S(=O)(=O)c2cccs2)Oc2ccc(NS(C)(=O)=O)cc2C1=O	0.1	0.44	0	.
C[C@H]1CN([C@@H](C)CO)C(=O)c2cc(NS(=O)(=O)c3ccc(Cl)cc3)ccc2O[C@H]1CN(C)Cc1ccc(C(=O)O)cc1	1.4	-0.74	-1	.
Cc1ccccc1-c1nnc(SCC(=O)Nc2ccc(F)c(F)c2)n1C	0.0	.	40	.
O=C(Nc1ccc2c(c1)OCCO2)C1CCCN(S(=O)(=O)c2ccc(F)cc2)C1 (stereo not given)	-1.5	.	12	.
C[C@@H]1CN([C@H](C)CO)C(=O)c2cccc(NC(=O)c3ccncc3)c2O[C@@H]1CN(C)Cc1ccc(Oc2ccccc2)cc1	-1.2	0.24	5	-51
C[C@@H]1CN([C@@H](C)CO)C(=O)c2cccc(NC(=O)c3ccc(-c4nccs4)cc3)c2O[C@@H]1CN(C)Cc1ccc(C(=O)O)cc1	.	-0.19	-5	14
Cc1noc(C)c1S(=O)(=O)Nc1ccc2c(c1)CC(=O)N([C@H](C)CO)C[C@@H](C)[C@H](CN(C)C(=O)Nc1cccc3ccccc13)O2	-0.4	-0.27	-3	13
C=Cn1cnc2c1c(=O)n(C)c(=O)n2C	0.2	-0.71	-3	-32
CC(C)NC(=O)Nc1ccc2c(c1)C(=O)N([C@H](C)CO)C[C@H](C)[C@H](CN(C)C)O2	2.0	-0.31	-3	.
Cc1cccc(C)c1NC(=S)N(CCC#N)C(C)C	-0.5	0.17	0	.
Cc1ccccc1N(CC(=O)Nc1cccc2ccccc12)S(C)(=O)=O	1.3	.	-9	.
CC(C)NC(=O)N(C)C[C@@H]1Oc2ccc(NS(C)(=O)=O)cc2CC(=O)N([C@@H](C)CO)C[C@@H]1C	0.7	-0.1	-5	4
C[C@H](CO)N1C[C@H](C)[C@H](CN(C)CC2CCCCC2)Oc2ccc(NC(=O)Nc3ccc4c(c3)OCO4)cc2CC1=O	1.9	0.056	-3	-10
O=S(=O)(c1ccccc1)c1nc(-c2ccccc2)oc1NCC1CCCO1 (stereo not given)	0.3	.	5	.

Compound profiles (already shown).
Profile of Cc1ccccc1-c1nnc(SCC(=O)Nc2ccc(F)c(F)c2)n1C : PD-1 reversal = 0.0; YB-1 expression = .; MITF inh = 40; Hedgehog inh = .
Profile of C[C@@H]1CN([C@H](C)CO)C(=O)c2cccc(NC(=O)C3CCCCC3)c2O[C@@H]1CN(C)Cc1ccc(Cl)c(Cl)c1 : PD-1 reversal = -4.3; YB-1 expression = 0.019; MITF inh = 6; Hedgehog inh = 31

The listing continues.
SMILES	PD-1 reversal	YB-1 expression	MITF inh	Hedgehog inh
C=C1CC[C@@H](C)[C@](C)(CCc2ccoc2)C/C=C\C=C/1C(=O)O	-0.9	1.5	-16	5
Cc1ccc(-n2nc3ccc(NC(=O)COc4ccccc4C)cc3n2)cc1	-2.1	.	-13	.
C[C@H](CO)N1C[C@H](C)[C@H](CN(C)S(=O)(=O)c2ccccc2)Oc2c(NC(=O)CCCCCC(=O)Nc3ccccc3N)cccc2C1=O	-0.9	0.19	15	.
Cc1ccc(S(=O)(=O)Nc2ccc3c(c2)CC(=O)N([C@H](C)CO)C[C@H](C)[C@H](CN(C)S(C)(=O)=O)O3)cc1	4.2	0.1	-16	-2
CC(=O)OCCCNC(=O)c1cc2ccccc2oc1=O	1.0	.	-2	.
C[C@@H]1CCCCO[C@H](CN(C)C(=O)Nc2cccc3ccccc23)[C@@H](C)CN([C@H](C)CO)C(=O)c2cc(NC(=O)Nc3cccc4ccccc34)ccc2O1	-0.9	-0.038	-2	-27
COc1ccc(S(=O)(=O)N(C)C[C@H]2Oc3ccc(NS(=O)(=O)c4cccs4)cc3C(=O)N([C@H](C)CO)C[C@@H]2C)cc1	0.0	-0.23	-11	.
c1ccc2c(c1)NC(c1ccc3c(c1)CCO3)n1cccc1-2 (stereo not given)	-0.5	0.25	-5	?
C[C@H]1CN([C@@H](C)CO)C(=O)c2cc(NS(=O)(=O)c3ccc(Cl)cc3)ccc2O[C@@H]1CN(C)C	.	0.4	-6	.
COc1cc(O)c2c(=O)c(O[C@@H]3O[C@H](CO[C@@H]4O[C@@H](C)[C@H](O)[C@@H](O)[C@H]4O)[C@@H](O)[C@H](O)[C@H]3O)c(-c3ccc(O)c(O)c3)oc2c1	.	-0.2	.	-19
COc1cc(-c2oc3cc(O)cc(O)c3c(=O)c2O[C@@H]2O[C@H](CO)[C@@H](O)[C@H](O)[C@H]2O)ccc1O[C@@H]1O[C@H](CO)[C@@H](O)[C@H](O)[C@H]1O	1.1	-0.92	-8	-31
COc1ccc(S(=O)(=O)N(C)C[C@H]2OCCCC[C@@H](C)Oc3ccc(NC(=O)Nc4c(C)noc4C)cc3C(=O)N([C@H](C)CO)C[C@@H]2C)cc1	-0.9	0.24	-1	-3
COc1ccc(NC(=O)N(C)C[C@H]2Oc3c(NC(=O)Nc4ccc5c(c4)OCO5)cccc3C(=O)N([C@@H](C)CO)C[C@@H]2C)cc1	0.3	-0.17	-14	-3
C[C@@H]1CCCCO[C@@H](CN(C)C(=O)CCC(F)(F)F)[C@@H](C)CN([C@H](C)CO)C(=O)c2cc(NS(=O)(=O)c3ccccc3)ccc2O1	-1.0	-0.25	-27	-19
COc1cc(C(C)CC(C)(O)CC(=O)O)oc(=O)c1C (stereo not given)	1.2	0.16	3	-16
Cc1noc(C)c1NC(=O)Nc1ccc2c(c1)C(=O)N([C@@H](C)CO)C[C@@H](C)[C@H](CN(C)S(=O)(=O)c1ccc(Cl)cc1)O2	0.3	-0.75	-5	-9
CC(=O)N[C@@H](CSC/C=C(\C)CCC=C(C)C)C(=O)O	.	-0.14	-24	-66
CC(C)NC[C@H](O)COc1cccc2ccccc12	0.6	-0.27&-0.23	0&-15	-1&16
COc1ccc(CN(C)C[C@H]2Oc3ccc(NS(=O)(=O)c4ccc(OC)cc4)cc3CC(=O)N([C@@H](C)CO)C[C@H]2C)cc1	.	-0.0066	-13	-6
C[C@@H]1CN([C@@H](C)CO)C(=O)c2cccc(NC(=O)Nc3ccccc3)c2O[C@H]1CN(C)S(=O)(=O)c1ccccc1	2.4	0.077	6	-11
CC(/C=C/c1cccc(Oc2ccc(F)cc2)c1)N(O)C(N)=O (stereo not given)	.	0.44	-2	1
C[C@@H]1CN([C@H](C)CO)C(=O)c2cccc(NC(=O)C3CCCCC3)c2O[C@@H]1CN(C)S(=O)(=O)c1cn(C)cn1	1.8	0.25	-5	-14
C[C@H](CO)N1C[C@H](C)[C@@H](CN(C)Cc2ccc(C(F)(F)F)cc2)Oc2ccc(NS(=O)(=O)c3ccccc3)cc2C1=O	-3.8	-0.058	3	.
Cc1ccc(OCC(=O)Nc2cccc(-c3nnc(-c4ccccc4)o3)c2)cc1	0.0	.	-49	.
C[C@@H]1CN([C@@H](C)CO)C(=O)c2cc(NS(=O)(=O)c3cccs3)ccc2O[C@@H]1CN(C)Cc1ccc(Oc2ccccc2)cc1	-0.7	-0.022	3	6
COc1ccc(CN(C)C[C@H]2Oc3ccc(NC(=O)NC4CCCCC4)cc3CC(=O)N([C@@H](C)CO)C[C@@H]2C)cc1	-1.0	0.034	11	.
COc1cc(OC)cc(C(C)(C)OC(=O)NN)c1	-0.4	0.25	-1	35
Cn1c(SCC(=O)Nc2cc(Cl)cc(Cl)c2)nnc1-c1ccc(Cl)cc1	3.2	.	5	.
Cc1noc(C)c1NC(=O)N(C)C[C@H]1Oc2c(NS(=O)(=O)c3ccc(F)cc3)cccc2C(=O)N([C@H](C)CO)C[C@H]1C	1.0	-0.23	5	-35
COc1ccc(CN(C)C[C@@H]2Oc3ccc(NC(=O)NC4CCCCC4)cc3C(=O)N([C@H](C)CO)C[C@@H]2C)cc1	-0.3	-0.33	4	-29
C[C@H]1CN([C@@H](C)CO)C(=O)c2cc(NC(=O)c3ccncc3)ccc2O[C@H]1CN(C)CC1CCCCC1	0.8	0.12	0	-2
COc1ccc(Cl)cc1NC(=O)CSc1nnc(-c2cccc(C)c2)n1C	-1.1	.	20	.
C[C@@H]1CN([C@H](C)CO)C(=O)c2cc(NC(=O)Cc3ccccc3)ccc2O[C@H]1CN(C)C(=O)Nc1ccc(C(F)(F)F)cc1	.	0.042	-4	2
O=C(CSc1nnnn1-c1cccc(C(=O)O)c1)Nc1ccccc1F	1.0	.	-11	.
COc1cccc2oc3c(c(=O)c12)C(C(=O)O)=CC(CO)=CO3	-0.6	-0.29	-6	-2
COc1ccc(NC(=O)Nc2ccc3c(c2)C(=O)N([C@@H](C)CO)C[C@H](C)[C@H](CN(C)C(=O)Nc2ccccc2)O3)cc1	-0.9	-0.12	5	-10
COc1ccc(C2C(C(N)=O)=C(C)Nc3nc(SCc4ccccc4Cl)nn32)c(OC)c1 (stereo not given)	2.1	.	-16	.
Cc1noc(C)c1S(=O)(=O)Nc1ccc2c(c1)C(=O)N([C@H](C)CO)C[C@@H](C)[C@H](CN(C)Cc1ccc(C(=O)Nc3ccccc3N)cc1)O2	-0.3	0.07	-5	.
CC1CC(=O)C2=C(CCC3(O)C2C(=O)c2cccc(O)c2C3O)C1 (stereo not given)	2.1	-0.14	14	-2
Cc1ccc(S(=O)(=O)N(C)C[C@@H]2Oc3c(NC(=O)Nc4ccccc4)cccc3C(=O)N([C@@H](C)CO)C[C@H]2C)cc1	-1.0	-0.54	4	5
Cc1ccc(C(=O)CSc2nc(C)nc3sc(C)c(C)c23)cc1	-0.9	.	-14	.
N[C@@H](CO)CSCc1ccccc1	3.8	-0.13	-5	-20
COc1ccc(-c2nnc3c4ccccc4c(C)nn23)cc1S(=O)(=O)NC(C)c1ccccc1 (stereo not given)	1.9	.	-28	.
COC(=O)c1cc(OC)c(OC)cc1NC(=O)CN1CCCCC1	0.7	.	-12	.
C[C@H]1CN([C@@H](C)CO)C(=O)c2cccc(NC(=O)C3CCCCC3)c2O[C@@H]1CN(C)Cc1ccc(Cl)c(Cl)c1	0.7	-0.29	9	38
Cc1cc(C(=O)Nc2cccc3c2O[C@H](CN(C)C(=O)Nc2ccc4c(c2)OCO4)[C@@H](C)CN([C@H](C)CO)C3=O)n(C)n1	.	-0.63	2	-47
N#Cc1c(-c2ccccc2)nc(SCC(=O)Nc2cccc(C(F)(F)F)c2)[nH]c1=O	2.0	.	-7	.
Cc1onc(-c2c(Cl)cccc2Cl)c1C(=O)ON1C(=O)CCC1=O	-1.1	-0.1	-8	16
C[C@H]1CN([C@@H](C)CO)C(=O)c2cc(NC(=O)Nc3ccc(F)cc3)ccc2O[C@@H]1CN(C)Cc1ccncc1	0.0	-0.52	-5	-28
C[C@@H]1CN([C@H](C)CO)C(=O)Cc2cc(NC(=O)c3ccncc3)ccc2O[C@H]1CN(C)Cc1ccc2c(c1)OCO2	0.7	0.15	-3	-7

A different layout for some results above.
SMILES | PD-1 reversal | YB-1 expression | MITF inh | Hedgehog inh
Cc1ccc(C(=O)CSc2nc(C)nc3sc(C)c(C)c23)cc1 | -0.9 | . | -14 | .
N[C@@H](CO)CSCc1ccccc1 | 3.8 | -0.13 | -5 | -20
COc1ccc(-c2nnc3c4ccccc4c(C)nn23)cc1S(=O)(=O)NC(C)c1ccccc1 (stereo not given) | 1.9 | . | -28 | .
COC(=O)c1cc(OC)c(OC)cc1NC(=O)CN1CCCCC1 | 0.7 | . | -12 | .
C[C@H]1CN([C@@H](C)CO)C(=O)c2cccc(NC(=O)C3CCCCC3)c2O[C@@H]1CN(C)Cc1ccc(Cl)c(Cl)c1 | 0.7 | -0.29 | 9 | 38
Cc1cc(C(=O)Nc2cccc3c2O[C@H](CN(C)C(=O)Nc2ccc4c(c2)OCO4)[C@@H](C)CN([C@H](C)CO)C3=O)n(C)n1 | . | -0.63 | 2 | -47
N#Cc1c(-c2ccccc2)nc(SCC(=O)Nc2cccc(C(F)(F)F)c2)[nH]c1=O | 2.0 | . | -7 | .
Cc1onc(-c2c(Cl)cccc2Cl)c1C(=O)ON1C(=O)CCC1=O | -1.1 | -0.1 | -8 | 16
C[C@H]1CN([C@@H](C)CO)C(=O)c2cc(NC(=O)Nc3ccc(F)cc3)ccc2O[C@@H]1CN(C)Cc1ccncc1 | 0.0 | -0.52 | -5 | -28
C[C@@H]1CN([C@H](C)CO)C(=O)Cc2cc(NC(=O)c3ccncc3)ccc2O[C@H]1CN(C)Cc1ccc2c(c1)OCO2 | 0.7 | 0.15 | -3 | -7

An excerpt (hit frequency here may not be typical).
